Vif A3G: inhibitors of Vif binding to APOBEC3G peptide, primary screen, biochemical, TR-FRET, GST-Vif 1-94, biotin-A3G peptide, dose response retest (AID 1117319); 260,000 compounds, 0.57% hits; Virion infectivity factor (Human immunodeficiency virus type 1 group M subtype B (isolate …; inhibition, %, or IC50 in µM where a hit was titrated; TR-FRET GST-Vif / biotin-A3G peptide binding; higher % means a stronger effect; test concentration not given here; strong numbers were not always called active;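 active means above the screen mean plus three standard deviations and confirmed in dose response; inconclusive means results disagree or hit not tested in dose response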;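 further: Vif residues 1-94 fused to GST binding biotinylated APOBEC3G peptide 110-148; 0% = full assay without inhibitor and 100% = GST in place of GST-Vif; retest series ran down from 100 µM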
B2AR ag: beta2AR agonists driving receptor internalization, primary screen, cell-based, FAP fluorogen, flow cytometry; response, % (test concentration not listed); 340,000 compounds, 0.43% hits; Am2.2-beta2AR cells; reference of the scale not given here;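 active means response above a set limit, near 3 SD of response in nonfluorescent compounds, cut at about 42% in these data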;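 further: stock transfer was 100 nL into about 11 µL; a reference agonist was the positive control; negative values mostly stem from fluorescent compounds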
HNF4A DNA FP: change in binding of human HNF4A to DNA, primary screen, biochemical, fluorescence polarization, FITC-DNA | activity change, % at 10 µM | 1 h | Hepatocyte nuclear factor 4-alpha (Homo sapiens), P41235 | 360,000 compounds, 0.3% hits; in the data active means activity change above about 30%, passing the limit was not always enough;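 further: controls were the assay level and a saturating level of protein; the project sought stronger binding though the title names inhibitors; some compounds called inactive have numbers as strong as hits; positive values seem to mean higher polarization but the record does not say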
LANA-H2B inh: blockers of LANA interaction with H2A/H2B – biochemical, FP readout, HTS, primary screen | cell-free LANA-H2A/H2B peptide, fluorescence polarization | inhibition, % (test concentration not listed) | 320,000 compounds, 0.6% hits | AID 2629, 2010; in the data active means inhibition mostly above about 10%, no sharp cut-off; inactive means mostly below about 6.7%;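 further: stock transfer was 7.5 nL into about 10 µL; 0% = median of vehicle wells and 100% = median of positive control wells; one replicate is shown; the record names a cut of 25% in any replicate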
Target sequence (Q9QR71 whole entry, looked up): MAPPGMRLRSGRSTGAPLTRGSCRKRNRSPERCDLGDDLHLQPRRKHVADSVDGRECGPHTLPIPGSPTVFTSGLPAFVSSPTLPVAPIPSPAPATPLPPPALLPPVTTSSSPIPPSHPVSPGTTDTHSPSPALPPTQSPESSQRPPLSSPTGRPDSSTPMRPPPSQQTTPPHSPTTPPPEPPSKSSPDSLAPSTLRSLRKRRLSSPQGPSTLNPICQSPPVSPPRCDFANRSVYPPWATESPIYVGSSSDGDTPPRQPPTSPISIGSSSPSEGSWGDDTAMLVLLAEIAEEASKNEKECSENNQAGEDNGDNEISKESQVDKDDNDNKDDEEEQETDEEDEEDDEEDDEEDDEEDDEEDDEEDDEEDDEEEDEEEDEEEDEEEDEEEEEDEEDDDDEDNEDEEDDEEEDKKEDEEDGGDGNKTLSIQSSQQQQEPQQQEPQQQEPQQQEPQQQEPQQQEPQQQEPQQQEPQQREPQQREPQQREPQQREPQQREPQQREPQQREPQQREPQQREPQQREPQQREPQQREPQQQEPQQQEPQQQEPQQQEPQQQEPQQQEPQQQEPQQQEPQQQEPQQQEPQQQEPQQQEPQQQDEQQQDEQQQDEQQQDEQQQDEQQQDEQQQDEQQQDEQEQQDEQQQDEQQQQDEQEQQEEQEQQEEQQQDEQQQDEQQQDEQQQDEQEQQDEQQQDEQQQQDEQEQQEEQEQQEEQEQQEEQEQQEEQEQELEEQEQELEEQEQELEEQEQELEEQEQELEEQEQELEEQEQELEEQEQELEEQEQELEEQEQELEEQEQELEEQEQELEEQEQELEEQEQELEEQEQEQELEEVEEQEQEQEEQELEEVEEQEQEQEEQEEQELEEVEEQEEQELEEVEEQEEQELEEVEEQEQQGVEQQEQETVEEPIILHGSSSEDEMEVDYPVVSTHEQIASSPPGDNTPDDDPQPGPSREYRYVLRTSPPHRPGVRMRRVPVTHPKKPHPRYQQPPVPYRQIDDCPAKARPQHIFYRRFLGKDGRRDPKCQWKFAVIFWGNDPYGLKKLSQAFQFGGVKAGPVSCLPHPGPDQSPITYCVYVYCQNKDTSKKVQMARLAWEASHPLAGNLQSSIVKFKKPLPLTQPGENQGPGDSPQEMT
Calb FLC: C. albicans growth inhibition with fluconazole, primary screen, CaCi-2 strain, Alamar Blue fluorescence. C. albicans CaCi-2 (fluconazole-resistant clinical isolate) + fluconazole, 48 h. growth inhibition, % (no concentration beside the values). 300,000 compounds, 0.57% hits. AID 1979, 2009;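 active means most replicates above 75%; inconclusive means exactly half above 75%; inactive means most below 75%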;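 further: all wells also contain fluconazole at 8 µg/ml as a sub-toxic cotreatment; 0% = median of DMSO wells and 100% = median of geldanamycin control wells; wells of about 8 µL received 7.5 nL stock; the first replicate is given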
ALR inh: inhibitors of human ALR sulfhydryl oxidase, primary screen, biochemical, H2O2 detection, HRP-luminol luminescence, single point. purified ALR, DTT oxidation. inhibition, % (no concentration beside the values). 290,000 compounds, 3.8% hits. AID 485317, 2010;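 active means mean and each replicate at 75% or more; inconclusive means only one of the two met; inactive means neither met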;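 further: stock transfer was 7.5 nL into about 7.5 µL; 0% = neutral wells and 100% = wells with inactivated enzyme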
RanGTP-Impb inh: inhibitors of RanGTP-importin-beta interaction, primary screen, biochemical, FRET, CFP-Ran, YFP-importin-beta, homogeneous. AID 2216, 2009. 300,000 compounds, 1.1% hits. Ran GTPase (GTP-bound) - importin-beta complex. inhibition, % (test concentration not listed). cell-free CFP-Ran/YFP-importin-beta FRET ratio;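 active means most replicates above 15%; inconclusive means exactly half above 15%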;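 further: 0% = DMSO wells and 100% = Ran loaded with GDP instead of GTP; wells of about 40 µL received 100 nL stock; the first replicate is given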
Active calls of the source: *; ? = inconclusive; / = no result given; & = joins results of further samples.

nr	structure	Vif A3G	B2AR ag	RanGTP-Impb inh	ALR inh	HNF4A DNA FP	Calb FLC	LANA-H2B inh
1	COc1cc(Nc2cc(C)nc3ncnn23)cc(OC)c1OC	1.5%	1.3	0.7	-7.9	-3.0	-6.7	-6.1
2	Cc1nn(-c2cc(N3CCOCC3)ccc2[N+](=O)[O-])c(=O)c2ccccc12	0.4%	-7.3	-2.3	-0.9	0.8	17.2	7.1
3	Cc1onc(-c2ccccc2)c1C(=O)n1cccn1	-1.8%	-2.8	-1.3	-0.5	-1.4	-0.3	1.3
4	CCN(C(=O)c1cc2c(=O)n3cccc(C)c3nc2s1)C1CCCCC1	-5.6%	8.6	-1.8	4.6	2.8	1.5	-1.6
5	COc1ccc(C2(C(=O)Nc3ccc(C)cc3)CCOCC2)cc1	?	-6.2	0.0	6.0	0.9	6.2	-4.9
6	O=C(Nc1ccc(S(=O)(=O)NCCc2ccccc2)cc1)c1ccncc1	/	2.2	4.7	4.0	4.4	1.5	1.8
7	CCC(=O)N1CCn2c1nc1ccccc12	-0.9%	-0.6	1.3	-0.4	-1.4	-23.5	-4.2
8	Cc1cccn2c(=O)c3cc(C(N)=S)c(=N)n(CCCOC(C)C)c3nc12	11.5%	71.0*	173.9*	5.9	8.9	-10.7	1.4
9	COc1ccc(-c2nc(N)nc(N)n2)c(O)c1	/	1.1	/	3.1	1.0	/	1.6
10	CCOC(=O)[C@H]1[C@H]2COc3ccc(Br)cc3[C@@H]2N2C(=O)c3cc(F)c(F)cc3NC(=O)[C@@]12C	/	15.8	/	/	-2.2	/	-5.5
11	Cc1cn(C(=O)c2cccc(Br)c2)c(C)n1	0.2%	4.4	3.9	0.1	1.2	-6.1	5.1
12	COc1ccc2c(c1OC)C(=O)N(c1cccc(C)c1)C2=O	0.5%	-3.8	0.5	-5.8	2.2	-2.0	-1.0
13	FC(F)(F)c1cccc(NC(=S)NCc2ccccc2)c1	16.4%	-5.4	-0.7	0.7	-1.0	-62.0	-5.7
14	CCOc1ccc(S(=O)(=O)n2c([N+](=O)[O-])cnc2C)c(C)c1C	/	-1.2	-1.2	-5.7	-1.0	12.2	5.2
15	CC12C=CC3(CN(Cc4ccccc4)C(=O)C3C1C(=O)NCc1ccco1)O2 (centres undefined)	?	3.2	0.1	-3.6	3.1	2.7	10.6
16	COc1ccc(C2=NN(C(=O)CCCC(=O)O)C(c3cn(-c4ccccc4)nc3-c3ccccc3)C2)cc1 (centres undefined)	/	-13.4	7.1	5.8	3.1	5.2	-0.5
17	O=C(COc1cccc(Cl)c1)NCC(c1cccs1)N1CCOCC1 (centres undefined)	0.7%	-3.0	/	-0.1	0.1	/	-1.0
18	O=C1C=C(c2ccc(Br)c3ccccc23)C[C@@H](c2ccc3c(c2)OCO3)C1	/	6.1	/	1.0	2.5	/	5.9
19	C=CCN1C(=O)CSc2ccc(C(=O)N3CCC(C)CC3)cc21	1.6%	-2.1	8.3	4.7	-1.9	-2.2	-6.3
20	CC1(C)CC(=O)C(C=NCC2CCN(C(=S)Nc3ccccc3)CC2)=C(O)C1	-8.1%	-5.3	0.9	-2.6	1.3	-8.0	1.2
21	COc1cc(OC)c(S(=O)(=O)NC(C)C)cc1C(=O)O	5.3%	2.6	1.9	-8.1	1.5	0.3	1.2
22	CC(=O)N1C(C)c2ccccc2C(C)(C)CC12CCCCC2 (centres undefined)	/	-3.6	2.9	-8.7	-0.2	5.1	-0.4
23	CCOC(=O)c1ccc(OCc2nc(-c3cccs3)no2)cc1	4.6%	3.9	-1.1	-0.9	-0.2	-7.1	4.2
24	Cc1[nH]n(-c2ccccc2)c(=O)c1C=Nc1ccc(S(=O)(=O)N=C(N)N)cc1	-2.5%	-14.1	-1.4	0.4	-2.8	5.3	0.1
25	COc1cc(C(=O)Nc2cc3c4c(c2)CC(=O)N4CCC3)cc(OC)c1OC	2.6%	-2.2	0.4	-12.5	0.8	-2.6	2.8
26	CCN(CCO)Cc1csc2ccc(C(C)(C)C)cc12	/	-6.1	-0.9	-7.8	-1.6	0.3	-4.8
27	CC(=O)Nc1ccc2c(c1)OCO2	5.1%	10.3	0.4	-5.6	-2.8	-2.9	-9.6
28	COc1ccc(C(=O)NC2CC(C)(C)Cc3c2cnn3-c2ccccc2C)c(OC)c1OC (centres undefined)	/	17.8	0.0	-4.6	0.0	9.4	-0.6
29	Cc1ccc(/C(N)=N/OC(=O)c2ccc3c(c2)OCO3)cc1	/	3.0	7.9	-35.2	-2.5	5.7	0.5
30	O=C(C1=C[C@@H](c2coc3ccccc3c2=O)C[C@@H](OCc2ccc(CO)cc2)O1)N1CCN(Cc2ccccc2)CC1	20.6%	6.5	-1.4	/	0.7	-3.4	0.5
31	COc1ccccc1NC(=O)C(=O)N/N=C(\C)CC(=O)Nc1ccccn1	-5.5%	0.0	-2.7	42.6	0.7	10.6	24.2*
32	CCCN(CC1CC1)C(=O)CCc1nnc(CCc2c[nH]c3ccccc23)o1	/	1.3	6.3	/	0.3	-7.8	2.2
33	CC1CCN(C2=NN3C(=N)/C(=C\c4ccc(OC(=O)c5ccco5)cc4)C(=O)N=C3S2)CC1	/	26.4	-0.1	11.8	3.6	3.2	1.7
34	N#CC1=C(SCc2ccccc2)NC(=O)CC1c1cccc(O)c1 (centres undefined)	8.2%	10.1	-5.5	4.1	2.7	35.9	0.5
35	CCOC(=O)C1CCN(c2c(NCCCN3CCN(Cc4ccccc4)CC3)c(=O)c2=O)CC1	-0.1%&-1.9%	-5.4	-2.1	-3.0	6.0	-9.2	1.9
36	O=C(c1ccc(C(F)(F)F)cc1)N1CCC(=O)N(C(CO)Cc2ccccc2)CC1 (centres undefined)	/	1.4	?	-9.7	-5.1	-7.0	-0.9
37	CCn1cc(CN(C)C(=O)CSc2nc(-c3ccco3)cc(C(F)(F)F)n2)c(C)n1	7.9%	-19.9	4.2	-5.6	-1.0	2.4	2.1
38	CC(C)(C)n1cnnc1Sc1ccc([N+](=O)[O-])cn1	-14.1%	0.3	1.5	-33.5	-1.0	-17.8	-2.5
39	Nc1ccccc1NC1=CC(=O)CC(c2ccco2)C1 (centres undefined)	49.4µM*	2.5	0.9	83.8*	-1.9	?	-0.6
40	CC1CC2=C(C(=O)O1)C(c1ccccc1)Nc1ccccc1N2 (centres undefined)	/	-6.6	-0.2	98.0*	0.1	-0.8	-2.8
41	FC(F)(F)c1nnc2ccc(NCc3ccccc3)nn12	-1.2%	3.2	1.9	-8.2	1.4	-2.9	-3.9
42	Cc1nn2c(Nc3ccccc3)c3c(nc2c1-c1ccccc1)CCC3	-6.2%	-16.0	2.1	5.1	1.5	3.2	-0.4
43	Cn1cc(Br)c(C(=O)Nc2sc3c(c2C#N)CCC3)n1	6.9%	-24.0	1.4	/	5.1	-6.9	-0.5
44	COc1ccc(NC(=S)N2CCN(Cc3ccc(C)cc3)CC2)cc1	5.9%	4.1	0.9	/	3.5	-10.7	-1.3
45	O=C(NC1CCOC1)c1ccc(OC2CCN(CCc3ccccc3)CC2)cc1 (centres undefined)	/	1.8	-0.5	-4.4	-0.2	-8.1	-1.2
46	COCCN(C(=O)COC(=O)CC(C)c1ccccc1)c1c(N)n(Cc2ccccc2)c(=O)[nH]c1=O (centres undefined)	1.1%	-10.2	1.8	/	-1.4	4.2	-1.4
47	CCOC(=O)C1=C(C)NC(=S)NC1c1ccc(-c2cccc(Cl)c2C)o1 (centres undefined)	7.1%	6.5	-1.9	/	-0.8	0.1	-7.4
48	O=C(c1cc2ccccc2o1)N1CCN=C1SCc1cccc(F)c1	-7.5%	-6.0	1.9	-41.7	2.7	-8.3	3.1
49	Cc1cc2sc(C(=O)O)c(C)c2s1	-24.9%	-3.4	-7.7	3.2	0.0	2.2	2.7
50	COc1ccc(S(=O)(=O)Nc2cc(C)c(O)cc2C(C)C)cc1	-2.6%	1.7	-1.0	42.6	-3.2	11.9	2.0
51	Cc1ccc(-c2csc(-c3c[nH]c4ccccc34)n2)cc1	-3.7%	-7.8	-0.3	4.3	0.8	-6.0	2.4
52	CCCCN1CC(=O)N2[C@H]3c4ccccc4OC[C@@H]3[C@H](c3ccccc3)[C@]2(C)C1=O	/	-15.7	/	-0.8	0.2	/	0.3
53	C#CCOCCOCCOCCNc1nc(N2CCN(C(=O)[C@H](Cc3cc4ccccc4[nH]3)n3cc([C@@H](N)C(C)CC)nn3)CC2)nc(N2CCN(C(=O)[C@H](CCCCN)n3cc([C@@H](N)CO)nn3)CC2)n1 (some centres undefined)	/	/	-2.7	-26.8	/	9.4	-1.8
54	O=C(O)C1C2C=CC(C2)C1C(=O)NC1CCS(=O)(=O)C1 (centres undefined)	-4.5%	-0.8	-0.4	-7.5	5.1	5.2	3.3
55	CCOc1ccccc1OCc1nn2c(-c3ccc(C)cc3)nnc2s1	17.4%	-1.2	0.9	-16.4	0.5	-18.3	9.1
56	O=c1nc(N/N=C/c2c[nH]c3ccccc23)cn[nH]1	/	2.1	-0.8	1.3	2.0	-14.4	1.7
57	O=C(Nc1ccc(S(=O)(=O)N2CCc3ccccc32)cc1)C(F)(F)F	/	5.3	6.4	-0.6	0.9	6.9	1.3
58	Cc1cccc(N2CCN(C(=O)Cc3ccccc3[N+](=O)[O-])CC2)c1C	/	-6.6	-3.0	-10.0	-1.1	26.7	20.8*
59	COc1ccc(OC)c(NC(=O)c2cc3n(n2)C(C(F)(F)F)CC(c2ccc4c(c2)OCO4)N3)c1 (centres undefined)	3.1%	3.4	0.6	-12.7	-4.2	4.8	-1.4
60	COc1ccc(-c2[nH]ncc2CN(C)C(C)c2ccon2)c(OC)c1 (centres undefined)	-13.4%	-3.0	3.1	/	0.2	3.1	-8.3

More structures follow.
nr	structure	Vif A3G	B2AR ag	RanGTP-Impb inh	ALR inh	HNF4A DNA FP	Calb FLC	LANA-H2B inh
61	COCCN1C(=O)N[C@@H](c2cccc(F)c2)C(C(=O)OC)=C1C	-1.3%	-0.8	0.3	1.1	4.9	-5.5	-8.2
62	Cc1ccc(-n2ncc3c(SCc4cccc(C)c4)ncnc32)cc1	/	0.1	0.9	/	-0.4	-0.8	-2.9
63	COc1ccc(CC(=O)N/N=C(\C)c2cccnc2)cc1	/	-9.2	2.5	7.7	3.1	-1.6	5.7
64	CCOC(=O)C1=C(C)N=C2c3ccccc3C(=O)C2C1c1ccc(C)cc1 (centres undefined)	3.6%	5.5	-5.9	-8.1	-0.6	9.2	0.9

High-throughput results from PubChem.
